# Screening results deposited in PubChem by National Center for Advancing Translational Sciences (NCATS).
# PMP22 txn: PMP22 gene transcription modulation | S16 Pmp22-F2sN Schwann cells (luciferase reporters placed in the Pmp22 gene), FLuc/NLuc coincidence luminescence, 24 h | hit rate 2% among 43,000 | Potency, µM (top dose mostly 57.5 µM), for the others: top-dose activity change, negative = inhibition, actives largely listed as inhibitors; active = clear falling dose curves in both reporters; inconclusive = both reporters move, but less clearly or upward; inactive = either reporter flat; the % is the NLuc reporter signal; further: on the % scale 0 is the no-effect control and ±100 the full control effect; some results filed as inactive show a strong effect at the top dose
#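 Reporter cells (S16 Pmp22-F2sN, 500–1,000 per well) exposed to compounds for 24 h, 37C, 5% CO2; lysis with FLuc read after 10 min, then Stop&Glo and NLuc read after 10 min.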
# HTT promoter inh: HTT promoter inhibition; HEK293 HTT promoter firefly luciferase reporter (activity 0% = vehicle and -100% = no light), 24 h; hit rate 0.93% among 48,000; Potency, µM (top dose mostly 57.5 µM), without a hit: top-dose activity change, negative = inhibition, usual class: inhibitors; AID 1508623; active means well fitted inhibition curve with a large enough effect; inconclusive means small, poorly fitted or top-dose-only effect; inactive means no such curve, though single readings can be large or run the other way; further: nearly all actives have a fitted effect of over 50% in size
#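 HEK293 luciferase promoter-reporter cells (2,500/well) plated 24 h, then compounds added at up to 57.5 uM final for 24 h at 37 °C. Firefly luminescence by Dual-Glo, normalized to vehicle (0%) and zero RLU (-100%).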
# The depositor's hits bear a star; u = inconclusive; x = no result given; [ ] = remark or other dose. Potency means the concentration at half of the fitted maximal effect. Some of the compounds tested; count on the stated rates, not on these rows.
Structure	PMP22 txn	HTT promoter inh
Cc1cc(C)cc(C(=O)NCCc2csc(-c3ccc(C(F)(F)F)cc3)n2)c1	u	-19.3%
Cc1cc(S(=O)(=O)n2ccnc2C(C)C)cc([N+](=O)[O-])c1C	9.0%	-15.9%
O=C(CCn1cnc2onc(-c3ccc(F)cc3)c2c1=O)Nc1cccc(C(F)(F)F)c1	u	u
O=c1oc2c(F)cc(F)cc2cc1S(=O)(=O)c1ccc(F)cc1	-10.7%	-21.1%
O=S(=O)(Nc1nc2n(n1)C(c1ccccc1)C=C(c1ccc(Cl)cc1)N2)c1ccccc1 (configuration not stated)	-0.9%	-7.1%
Fc1ccccc1N1CCN(c2ncc3c(n2)CCN(Cc2cc(Br)cs2)C3)CC1	-40.9%	u
CCCn1c(COc2cccc(C)c2)nc2ccccc21	0.3%	10.3%
Cc1cc(N2CCCCC2)nc2ccc(NC(=O)/C=C/c3ccc(OCCC(C)C)cc3)cc12	u	u
Cc1cccc(C)c1OCC(=O)Nc1ncn[nH]1	8.8%	-18.1%[11.5 µM]
CCc1ccc(-n2c(=O)c3sc4ccccc4c3n(CC(=O)NCc3ccccc3)c2=O)cc1	u	2.1%
Cc1ccc(-c2nc(SCc3ccc(Br)cc3)n3[nH]c(=O)cc3n2)cc1	-2.7%	-8.9%
O=C(NCCc1ccc(Cl)cc1)c1ccc(CSCc2ccccc2Cl)o1	u	u
Brc1ccc(-c2nc(N3CCN(c4ccccc4)CC3)c3ccccc3n2)cc1	u	u
CC(=O)NCCNC(=O)CCCn1c(=O)[nH]c2ccsc2c1=O	-11.9%	3.3%
Cc1ccc2c(C)c(C(=O)N(Cc3ccc(N(C)C)cc3)Cc3ccco3)oc2c1C	u	-18.9%
COc1ccc(CCNC(=O)C(CC(C)C)N2Cc3ccccc3C2=O)c(OC)c1OC (configuration not stated)	5.1%	-22.8%
CCOC(=O)c1c(NC(=O)CSc2cn(CCNC(=O)c3c(F)cccc3F)c3ccccc23)sc2c1CCCC2	-17.7%	-28.4%
CCS(=O)(=O)n1nc(-c2ccco2)nc1NCc1ccc(C(C)C)cc1	-20.3%	0.9%
O=C1CC(c2nc3ccccc3n2Cc2c(F)cccc2Cl)CN1c1cccc(C(F)(F)F)c1 (configuration not stated)	u	-15.4%
CCn1c(=O)sc2cc(NS(=O)(=O)c3ccc(C)cc3)ccc21	u	u
COC(=O)c1ccc(OC)c(CN2CCCN(Cc3ccc(C)cc3)S2(=O)=O)c1	u	-5.7%
CCCn1c(CCCNC(=O)c2ccccc2OC)nc2ccccc21	-29.6%	-10.1%
Cn1nnc2c(N3CCN(c4cccc(C(F)(F)F)c4)CC3)ncnc21	-12.8%	u
CCOc1ccccc1OCCN[C@H](C)Cc1ccc(OC)c(S(N)(=O)=O)c1	x	-5.2%
Cc1cccc(CCNC(=O)c2cc3c(=O)n(C)c4ccccc4c3n2C)c1	-31.9%	5.3%
COc1ccc(NCc2nnc3n2CCCCC3)c(OC)c1	-0.6%	-9.7%
O=C(Cn1ccc2cc(S(=O)(=O)N3CCCCCC3)ccc21)NCc1cccc(Cl)c1	-18.0%	u
CCn1c(/C(C#N)=C/c2ccccc2Cl)nc2ccccc21	u	22.7%
COc1ccccc1NC(=O)c1cnc(SCC(=O)N2CCCc3ccccc32)n(C)c1=O	u	3.7%
CC(=O)c1ccc(N2CCN(S(=O)(=O)c3ccc4[nH]c5c(c4c3)CCCC5)CC2)cc1	u	u
CCc1cccc(C)c1NC(=O)c1cc(CN2CCCC2)on1	8.1%	5.9%
O=C(Nc1ccc(C(F)(F)F)cc1)c1cc(S(=O)(=O)N2CCCc3ccccc32)ccc1F	u	u
CCOc1ccc(OCC)c(NC(=O)CN(C)S(=O)(=O)c2ccc3[nH]c(=O)oc3c2)c1	-5.9%	-14.4%
CC(=O)c1cccc(NC(=O)c2nc(-c3ccccc3)n(-c3ccccc3C)n2)c1	u	-27.0%
Cc1cc(C)cc(NC(=O)CSc2nc(-c3cccc(Cl)c3)nc3c2Cc2c(CO)cnc(C)c2O3)c1	u	-5.7%
Cc1ccc(NC(=O)CCc2nnc3n(C)c(=O)c4sccc4n23)cc1C	-10.0%	-1.8%
COc1ccc(CCNC(=O)CCc2c(C)nc3c4cccnc4nn3c2C)cc1OC	-10.0%	0.8%
Cc1ccc2cc(CN(C)C(=O)c3cccc(Cl)c3)c(=O)[nH]c2c1	2.0%	-33.1%
CCC(Sc1nnc(-c2ccc(OC)cc2)c(-c2ccc(OC)cc2)n1)C(=O)NC1CCCCC1 (configuration not stated)	u	5.1%
CCOC(=O)CSc1nc2ccc(NC(=O)c3cccc(F)c3)cc2s1	u	-12.8%
CCN1CCOC(=O)C1CC(=O)Nc1ccc(C(C)=O)cc1 (configuration not stated)	u	-5.9%
Cc1c2cnn(CC(=O)N3CCN(c4ccccc4)CC3)c(=O)c2c(C)n1Cc1ccccc1Cl	15.1%	2.9%
CCSc1ncc(Cl)c(C(=O)Nc2sc3c(c2C(=O)NC)CCCC3)n1	-31.7%	-8.3%
O=C(Cn1c(=O)n(-c2ccccc2)c(=O)c2ccc(C(=O)NCc3ccc4c(c3)OCO4)cc21)Nc1ccc(F)cc1	u	-26.5%
Cc1nn(C)c2c1c(-c1ccccc1)cc(=O)n2Cc1c(F)cccc1Cl	33.6%	-7.3%
Cc1ccccc1NC(=O)Nc1csc2c1CCCC2	u	6.7%
CCN(CC)c1cc2c(cc1F)c(=O)c(S(=O)(=O)c1ccccc1)cn2C	5.1%	-15.5%
COc1cc(NC(=O)Cn2nc(Cc3cccnc3)c3ccccc3c2=O)cc(OC)c1OC	-28.8%	-3.0%
CCc1ccccc1N1C(=O)CN(S(=O)(=O)CC)CC1(C)C(=O)NC1CCCCC1 (configuration not stated)	-17.1%	-13.5%
COc1ccc(CNC(=O)C2CCN(c3nc4ccc(C)cc4[nH]3)CC2)cc1	-2.1%	-3.9%
Cc1cccc(C)c1NC(=O)Cn1c(=O)n(CCCS(=O)(=O)C2CCCCC2)c(=O)c2ccccc21	-2.5%	-8.5%
CCCCc1ccc(-n2nc3cc(C)c(NC(=O)c4ccc(C#N)cc4F)cc3n2)cc1	8.0%	-8.8%
COc1cc(OC)c(NC(=O)c2c(C)oc3nc(C)nc(N4CCOCC4)c23)cc1Cl	-3.9%	1.1%
Cc1ccc(-c2cc(C(=O)NCCc3ccccc3)c3c(-c4ccc(C)cc4)[nH]nc3n2)cc1	u	67.4%[activator]
Cn1cc(-c2cc3n(n2)CCC(=O)N3CC(=O)O)c2ccccc21	18.2%	-14.5%
COc1ccc2c(c1)CCc1c(C(=O)Nc3c(C)nn(Cc4ccc(Cl)c(Cl)c4)c3C)noc1-2	u	u
Cc1ccccc1Nc1nnc(-c2ccc(C)c(S(=O)(=O)N3CCOCC3)c2)c2ccccc12	u	-18.4%
O=C(Nc1ccc2nc(SCC(=O)N3CCc4ccccc43)sc2c1)c1cccc(Cl)c1	-14.0%	-17.8%
COc1cccc(C2C(C(=O)Nc3ccc(Cl)cc3)=C(C)Nc3c(C(=O)Nc4ccccc4)cnn32)c1OC (configuration not stated)	u	u
Cc1cc2c(cc1S(=O)(=O)CCC(=O)NCc1ccccc1)OCC(=O)N2	-4.9%	-5.3%

# Nothing new here: an excerpt of the list.
Structure	PMP22 txn	HTT promoter inh
Cc1ccccc1NC(=O)Nc1csc2c1CCCC2	u	6.7%
CCN(CC)c1cc2c(cc1F)c(=O)c(S(=O)(=O)c1ccccc1)cn2C	5.1%	-15.5%

# (cont.)
Structure	PMP22 txn	HTT promoter inh
CCN1CCN(C(=O)c2ccc3c(c2)N(Cc2ccc(F)cc2)C(=O)c2ccccc2S3(=O)=O)CC1	-16.9%	-14.6%
COC(=O)c1c(NC(=O)/C(C#N)=C/c2ccccc2)sc2c1CCC2	5.2%	-14.7%
CCOc1ccc(CNC(=O)C2CCN(C(=O)c3ccc(-n4ccc5ccccc54)s3)CC2)cc1	-70.7%	u
CC(=O)N1CCc2c(sc3c2c(=O)n(-c2cc(Cl)ccc2C)c(=O)n3C)C1	-6.3%	-9.4%
COc1cccc(Cn2ccn(-c3ccc(F)cc3)c(=O)c2=O)c1	6.5%	-8.0%
Cc1nn(C(C)C(=O)NCc2ccc(OC(C)C)cc2)c(=O)c2c1sc1ccccc12 (configuration not stated)	10.2%	-35.3%
CCc1ccccc1NC(=O)Cn1nnc(C(=O)NCc2cccs2)c1N	u	-21.9%
CCc1ccc(NC(=O)c2cc3c(=O)n(Cc4cccs4)ccc3nc2C)cc1	-1.5%	u
CCOC(=O)c1cnn(-c2ccc(C(=O)Nc3cccc(C(C)=O)c3)cc2)c1N	-5.8%	-10.2%
COc1cc(C(C)C)c(Oc2cnc(NC(CO)CO)nc2N)cc1I	x	-11.5%
CCOc1ccc(-c2cnc(NCc3ccc(C(F)(F)F)cc3)n2C)cc1	u	-23.6%
CC(=O)OCC(=O)[C@H]1CC[C@H]2[C@@H]3CCC4=CC(=O)CC[C@]4(C)[C@H]3CC[C@]12C	x	4.8%
Cc1ccccc1Cn1c2ccccc2c2cnn(CC(=O)NCCc3ccc(Cl)cc3)c(=O)c21	12.1%	13.8%
CCc1ccccc1N1C(=O)N(CC(=O)c2ccc(Cl)cc2)c2ccccc2S1(=O)=O	16.4%	-20.4%
CCc1ccc(-n2c(SCc3ccccc3Cl)nc3[nH]ncc3c2=O)cc1	u	-22.1%[11.5 µM]

# Profiles, looked up by structure.
# CCC(Sc1nnc(-c2ccc(OC)cc2)c(-c2ccc(OC)cc2)n1)C(=O)NC1CCCCC1 (configuration not stated) as listed: PMP22 txn = u; HTT promoter inh = 5.1%
# CCS(=O)(=O)n1nc(-c2ccco2)nc1NCc1ccc(C(C)C)cc1 as listed: PMP22 txn = -20.3%; HTT promoter inh = 0.9%
# COc1cccc(Cn2ccn(-c3ccc(F)cc3)c(=O)c2=O)c1 as listed: PMP22 txn = 6.5%; HTT promoter inh = -8.0%

# Next records.
Structure	PMP22 txn	HTT promoter inh
COc1ccc2c(c1)c1c(c(=O)n(-c3ccccc3C)c(=O)n1CC(=O)Nc1c(C)cccc1C)n2C	u	-13.6%
CCc1ccccc1NC(=O)N1CCN(c2nnc(C)c3c(C)n(-c4ccccc4)nc23)CC1	-18.2%	-9.7%
Cc1nn(-c2ccc(N3CCOCC3)nn2)c(C)c1CCC(=O)NCc1ccccc1F	u	-23.0%
CC(=O)N1CCc2cc(Br)cc(S(=O)(=O)CCC(=O)Nc3ccc(C)cc3Cl)c21	-2.9%	-9.6%
COc1cc(-c2noc(CSc3nc(-c4ccccc4)cc(=O)[nH]3)n2)cc(OC)c1OC	9.7%	7.2%
CCc1c(O)cc(O)c(C(=O)c2ccc(OCCN3CCOCC3)c(OC)c2)c1CC(=O)N(CCOC)CCOC	x	u
Cc1ccc2c(=O)c(C(=O)c3ccc(F)cc3)cn(CC(=O)NCc3ccccc3)c2n1	u	6.1%
O=C1CC(c2ccccc2)Cc2[nH]c(=O)c(-c3nc(-c4ccc(F)cc4)cs3)cc21 (configuration not stated)	3.4µM*	-27.1%
CCCCNS(=O)(=O)c1ccc(N2CCCCS2(=O)=O)cc1	u	u
Cc1ccc(S(=O)(=O)c2cn(Cc3ccccc3)c3cc(N4CCCC4)c(F)cc3c2=O)c(C)c1	u	-4.9%
CCC(CC)C(=O)NCc1nc2cccnc2n1Cc1ccc(F)cc1	-1.6%	-2.3%
O=C(Nc1ccccc1)c1cc2c(-c3ccccc3)nn(-c3ccccc3)c2s1	u	-8.8%
Cc1nc(SCc2cccc(Cl)c2)nc2c1CCCC2	u	-7.2%[11.5 µM]
C[C@]12CC[C@@H]3c4ccc(O)cc4C[C@@H](CCCCCCCCCS(=O)CCCC(F)(F)C(F)(F)F)[C@H]3[C@H]1CC[C@H]2O (some centres not stated)	x	-21.1%
COc1ccc(C(=O)NCC(c2ccc(N(C)C)cc2)N2CCOCC2)cc1 (configuration not stated)	u	-10.7%
COc1ccccc1CN1COc2ccc3c(oc(=O)c4ccccc43)c2C1	-56.0%	-0.4%
COc1cccc(CNC(=O)c2cc(-c3cccs3)nc3ccccc23)c1	-11.1%	-15.2%
Cc1ccc(NC(=O)C(=O)NCc2ccc(Cl)cc2)cc1	0.0%	-17.3%[11.5 µM]
CN(Cc1ccccc1)c1ccc(-c2nc(-c3ccccn3)no2)cc1[N+](=O)[O-]	u	-8.4%
Cc1c(-c2ccc(Cl)cc2)c(=O)oc2c(CN3CCN(CCO)CC3)c(O)ccc12	u	-21.2%
Cc1ccc(-n2ncc3c(N4CCN(c5ccc(F)cc5)CC4)ncnc32)cc1	5.2%	-21.7%
CCOC(=O)Cc1ccc(NC(=O)NCc2c(-n3cccc3)sc3c2CCCC3)cc1	5.2%	24.2%
